ERb SRC1 inh = ER-beta (human) coactivator binding inhibition. Q92731. TR-FRET ER-beta LBD / SRC1-Cy5 peptide binding; receptor agonist-loaded with 1 µM estradiol. inhibition, % at 25.6 µM. 1.3% of 86,000 active. AID 633;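 active = compounds whose percent inhibition of the receptor-coactivator binding signal exceeds about 50% in the single-dose screen, limit read from the data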;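 note: 0% = receptor plus peptide wells without compound and 100% = peptide-only wells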
Mac1 fbg enh = enhancers of human CD11b/CD18 binding to fibrinogen | 0.07% of 93,000 active | AID 1499 | activation, % at 10 µM | K562 CD11b/CD18 adhesion to fibrinogen, ATPlite luminescence;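 active = 10 µM primary screen giving 50% or more activity, confirmed by 40% or more on retest at that dose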; note: strong numbers were not always called active; reference of the scale not given here
ERa coact pot = ER-alpha (human) coactivator binding potentiation; P03372; TR-FRET ERalpha-LBD/SRC-Cy5 coactivator binding, 2 h; 100 = basal binding, no effect; coactivator binding (% of control), % at 25.6 µM; 1.3% of 86,000 active; in the data active = activity above about 200%;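 note: binding measured in presence of low estradiol as agonist stimulus; 0% = peptide alone without receptor and 100% = receptor with peptide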
Target sequence (P03372 whole entry, looked up, the tested form may be a part): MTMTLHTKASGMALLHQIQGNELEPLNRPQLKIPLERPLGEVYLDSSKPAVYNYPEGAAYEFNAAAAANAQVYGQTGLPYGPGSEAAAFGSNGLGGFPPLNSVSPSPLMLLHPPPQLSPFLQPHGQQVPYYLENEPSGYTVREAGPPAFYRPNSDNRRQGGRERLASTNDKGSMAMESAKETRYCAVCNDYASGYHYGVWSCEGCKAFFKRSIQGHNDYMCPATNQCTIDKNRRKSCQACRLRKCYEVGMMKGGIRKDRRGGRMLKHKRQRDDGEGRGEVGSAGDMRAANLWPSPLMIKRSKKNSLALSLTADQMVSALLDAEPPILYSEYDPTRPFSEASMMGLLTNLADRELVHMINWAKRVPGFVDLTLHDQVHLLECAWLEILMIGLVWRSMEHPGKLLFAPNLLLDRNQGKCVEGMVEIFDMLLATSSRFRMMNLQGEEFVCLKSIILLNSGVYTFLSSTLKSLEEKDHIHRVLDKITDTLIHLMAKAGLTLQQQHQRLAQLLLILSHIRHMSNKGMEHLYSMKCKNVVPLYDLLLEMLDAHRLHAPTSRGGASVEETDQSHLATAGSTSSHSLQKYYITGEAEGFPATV
Candida biofilm = kills Candida albicans biofilms; C. albicans biofilm + clotrimazole, Alamar Blue; inhibition, % at 6 µM; 0.14% of 85,000 active;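 active = inhibition above 20%; inactive = inhibition below 20%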;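 note: preformed 24 hr biofilms exposed to compound for 48 hr; 0% = biofilm without compound and 100% = blank killed by clotrimazole plus chlorhexidine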
Smad3 FoxH1 inh = inhibitors of human Smad3 transcription factor binding. P84022. TR-FRET Smad3/Dy647-FoxH1 peptide binding, europium anti-His. inhibition, % at 25 µM. 0.29% of 88,000 active. AID 630;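 active = compounds that reduce the energy-transfer binding signal between the protein and its labelled peptide by more than half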;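 note: 0% = Smad3 plus labelled peptide maximal FRET and 100% = peptide-only background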
Target sequence (P84022 whole entry, looked up): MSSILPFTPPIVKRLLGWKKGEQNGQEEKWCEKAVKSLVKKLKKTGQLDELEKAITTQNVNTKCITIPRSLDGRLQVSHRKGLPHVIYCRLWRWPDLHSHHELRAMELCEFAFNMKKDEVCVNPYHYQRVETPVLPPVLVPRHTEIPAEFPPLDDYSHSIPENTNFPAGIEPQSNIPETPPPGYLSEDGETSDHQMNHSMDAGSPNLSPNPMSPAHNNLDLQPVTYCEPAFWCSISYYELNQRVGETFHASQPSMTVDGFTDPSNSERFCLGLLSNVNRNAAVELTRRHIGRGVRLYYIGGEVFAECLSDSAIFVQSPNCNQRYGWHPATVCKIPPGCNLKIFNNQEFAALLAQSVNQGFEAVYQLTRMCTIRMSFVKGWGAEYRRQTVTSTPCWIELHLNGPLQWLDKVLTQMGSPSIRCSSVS
CD11b adhes inh = inhibitors of human CD11b/CD18 binding to fibrinogen | K562 CD11b/CD18 adhesion to fibrinogen, ATPlite luminescence; Mn2+ added to activate the integrin | P05107+P11215 | inhibition, % at 10 µM | 0.54% of 93,000 active | AID 1497;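 active = primary inhibition of 50% or more at 10 µM, then 40% or more on retest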; note: some results filed as inactive read as strong as hits
MT1-MMP txn act = activates MT1-MMP transcription. HT1080 MT1-MMP promoter luciferase reporter, luminescence, overnight; hits give high values. activation factor at 10 µM. 0.16% of 86,000 active. AID 750;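 active = activation factor of at least 2 for MT1-MMP transcription at 10 µM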
Numbers without * were called inactive; / = no result given; [ ] = dose if it differs, or a comment. An excerpt; count on the stated rates, not on these rows.

SMILES	ERb SRC1 inh	Mac1 fbg enh	ERa coact pot	Candida biofilm	Smad3 FoxH1 inh	CD11b adhes inh	MT1-MMP txn act
N#Cc1cc2c(nc1SCC(=O)O)CCCC2	1	2	101	1	15	3	1.1
C=CCn1c(CCNC(=O)c2ccccc2F)nnc1SCC(=O)Nc1nc2ccccc2s1	-9	-4	89	-1	3	-10	1.1
COc1cc(-c2cccs2)cc(=O)c2c(C)oc(C)c12	20	3	52[fluorescence artefact?]	4	0	0	1.1
COCCNC(=O)CCSc1nc(-c2ccc(OC)cc2)cc(C(F)(F)F)n1	-8	/	109	8	5	/	1.1
Cc1snc(SCC(=O)N/N=C(\N)COc2cccc(C(F)(F)F)c2)c1C#N	/	9	/	/	/	-5	/
COc1ccc(C2NC3=C(CCC3)C3(C#N)C(OC)(OC)N=C(N)C23C#N)cc1 (centres undefined)	25[fluorescence artefact?]	/	103[fluorescence artefact?]	9	8	/	1
Cc1cc(C)nc(N2CCC(C(=O)NC3CCCCCC3)CC2)n1	1	/	107	1	0	/	1.1
Cc1cc(C)nc(NC(=O)CSc2nc3cc(Cl)ccc3s2)n1	47[fluorescence artefact?]	14	147[fluorescence artefact?]	4	-1	-5	1.8
O=C(Nc1ccc(Oc2ccccc2)cc1)C1CCN(c2ncccn2)CC1	19[fluorescence artefact?]	2	126	1	-6	15	1.1
COc1ccc(S(=O)(=O)N(CCCN2CCOCC2)Cc2ccc(OC)c(OC)c2)cc1	1[fluorescence artefact?]	-2	132	3	8	-8	1
O=C(NCc1ccccn1)NC12CC3CC(CC(C3)C1)C2	-9	0	108	9	6	-31	/
Cc1ccc(OC(C)C(=O)Nc2ccc(S(=O)(=O)Nc3cc(C)on3)cc2)cc1 (centres undefined)	-10	1	110[fluorescence artefact?]	2	3	-2	1.1
COc1ccc(OCC(=O)Nc2cccc3ncccc23)cc1	10[fluorescence artefact?]	/	83[fluorescence artefact?]	8	-4	/	1.1
OCC1(c2cc(C(F)(F)F)n[nH]2)CCCCC1	-1[fluorescence artefact?]	0	112	3	-1	4	1
CCOC(=O)Cn1c(=O)n(CC(=O)OCC)c2ccccc21	-13	3	111	4	2	-32	1.3
COCCNC(=O)C1CC(=O)N(CCc2ccccc2)C1 (centres undefined)	-11	5	103	5	-7	-4	1.2
O=C(c1ccccc1)N1CCC(c2nc(-c3ccc(S(=O)(=O)N4CCOCC4)cc3)no2)CC1	-3	-1	106	10	3	8	1.1
CCOC(=O)Cn1c(C)c(C#N)c2ccccc21	-2[fluorescence artefact?]	1	111	0	3	-13	1.2
CCn1c(Cc2ccccc2)nnc1SCC(=O)Nc1ccc(C)cc1	-6	/	114	6	-3	/	1.3
COC(=O)c1ccc(CNC(=O)CSc2nc3sc(C)c(C)c3c(=O)n2C)o1	-1	1	106	8	12	-4	1.1
O=C(CN1CCN(C(=O)c2ccccc2)CC1)Nc1ncc(Br)cc1Br	5	6	130	6	9[fluorescence artefact?]	-13	1.1
Cc1cc(NS(=O)(=O)c2ccc(NC(=O)COc3ccc(Cl)cc3)cc2)no1	-9	5	105	8	3	1	1
O=C(O)c1cc2ccc3ccccc3c2oc1=O	2	/	95	3	3	/	0.9
CCN(CC)S(=O)(=O)N1CCC(C(=O)NCC2COc3ccccc3O2)CC1 (centres undefined)	2[fluorescence artefact?]	/	118	-7	6	/	1
CC1=C(C(=O)Nc2cccnc2)C(c2ccccn2)n2nnnc2N1 (centres undefined)	5	/	109	10	3	/	1.1
COc1cc(S(=O)(=O)NCC2CCCO2)ccc1Br (centres undefined)	-9	-2	94	6	19	-14	1
O=C(NCCCn1ccnc1)c1ccc2c(c1)OCCO2	1	-1	108	5	9[fluorescence artefact?]	-8	1.3
COc1ccc(S(=O)(=O)n2ccc(C(C)Oc3ccc(-c4ccccc4)c(F)c3)n2)cc1 (centres undefined)	/	-2	/	/	/	29	/
Cn1c(=O)n(CC(=O)N2CCN(c3nnc(-c4ccccc4)c4ccccc34)CC2)c2ccccc21	9	2	120	0	-4	21	1.1
O=C(N/N=C/c1ccccc1F)c1csc2c1CCCC2	/	1	/	/	/	-1	/

Next section; it opens with the 3 that closed the last part.
SMILES	ERb SRC1 inh	Mac1 fbg enh	ERa coact pot	Candida biofilm	Smad3 FoxH1 inh	CD11b adhes inh	MT1-MMP txn act
COc1ccc(S(=O)(=O)n2ccc(C(C)Oc3ccc(-c4ccccc4)c(F)c3)n2)cc1 (centres undefined)	/	-2	/	/	/	29	/
Cn1c(=O)n(CC(=O)N2CCN(c3nnc(-c4ccccc4)c4ccccc34)CC2)c2ccccc21	9	2	120	0	-4	21	1.1
O=C(N/N=C/c1ccccc1F)c1csc2c1CCCC2	/	1	/	/	/	-1	/
CCN(CCCNC(=O)C1CCN(S(=O)(=O)CC)CC1)c1cccc(C)c1	0[fluorescence artefact?]	0	113	11	2	9	1.1
CC1CCN(C(=O)CCNC(=O)Cn2cnc3sc4c(c3c2=O)CCCC4)CC1	6	0	92	4	-7	-41	1.3
O=C(/C=C/c1ccccc1F)c1ccoc1	/	-6	/	/	/	19	/
O=C(CSc1nc(-c2cccs2)cc(C(F)(F)F)n1)NCCCn1ccnc1	-28	/	119[fluorescence artefact?]	6	10	/	1.1
COc1cccc(=O)c2c(C)oc(C)c12	6	-2	100[fluorescence artefact?]	9	11	-4	1.2
Cc1ccc(Cn2c(SCC(=O)NCC3CCCO3)nc3c(sc4ccccc43)c2=O)cc1 (centres undefined)	10[fluorescence artefact?]	-2	152	-2	-31[fluorescence artefact?]	-4	1.1
O=C(NC1CCCCC1)NC1CCN(S(=O)(=O)Cc2ccccc2)CC1	-24	-2	106	6	6	-6	1.3
O=C(CNC(=O)Cn1cnc2sc3c(c2c1=O)CCCC3)NCc1ccccn1	-1	-6	111[fluorescence artefact?]	5	5	2	1.1
CCSc1nnc2c(n1)[nH]c1c(C)cccc12	-2	-5	116	4	3	24	1.6
CC(C)C(=O)N1CCC(CN=CC2=C(O)CC(C)(C)CC2=O)CC1	-9	/	103	3	3	/	1.2
COc1ccc(OCC(=O)Nc2cccc(C(C)=O)c2)cc1	1	7	119	8	-3	-7	1
O=C(Nc1ccc(S(=O)(=O)C(F)F)cc1)c1cccc(S(=O)(=O)N2CCOCC2)c1	-5	0	105	9	2	-2	1.2
Cc1cc(C(F)(F)F)nc(Nc2nc(C)c3ccccc3n2)n1	-2	-3	94	2	38[fluorescence artefact?]	8	1.1
CS(=O)(=O)Nc1ccc(C(=O)Nc2ccc3c(c2)OCCO3)cc1	2[fluorescence artefact?]	-3	90[fluorescence artefact?]	0	-15	3	1.3
O=C(Nc1ccc2c(c1)Cc1ccccc1-2)c1ccc(Br)o1	5[fluorescence artefact?]	/	127	5	14[fluorescence artefact?]	/	1.5
O=C(Nc1ccccc1C(F)(F)F)N1CCC(N2CCCCC2)CC1	-4	-2	96	-2	-12	-9	1.2
CC(=O)Nc1cc2c(cc1NC(=O)c1cnccn1)OCCO2	3[fluorescence artefact?]	1	115	4	-1	-2	1
COCCn1c(=NC(=O)CSC(C)=O)sc2cc(F)ccc21	-4	0	103	4	9	5	1.1
COC(=O)c1[nH]c2ccc(C)cc2c1NC(=O)CN1CCN(Cc2ccccc2)CC1	11[fluorescence artefact?]	-3	104	4	1	-10	1.1
Cc1ccc(-c2nnc(SCC(=O)Nc3nc4c(s3)CCCC4)n2C)cc1	-6	-1	103[fluorescence artefact?]	3	8	0	1
Cc1cc(C)n(-c2nc(-c3cccc(Cl)c3)cs2)n1	-1	-2	95	8	2	7	1.4
Cc1[nH]n(-c2ccccc2)c(=O)c1/C=N/NC(=O)c1cccc([N+](=O)[O-])c1	/	-7	/	/	/	43	/
O=C(Nc1ccc(-c2nnc(-c3ccccc3)o2)cc1)c1ccc(Br)o1	30	/	143[fluorescence artefact?]	-1	-18	/	1.1
Cc1ccc2cc(C(=O)O)c(C)nc2c1	-3	/	107	5	21[fluorescence artefact?]	/	1.2
Cc1c(NC(=O)C2CCCN2S(=O)(=O)c2ccccc2)c(=O)n(-c2ccccc2)n1C (centres undefined)	19	1	118	5	-18	5	1.1
Cc1c(C=O)c2ccccn2c1C(=O)c1ccncc1	18[fluorescence artefact?]	/	87[fluorescence artefact?]	-3	-12	/	1.1
O=C(Nc1ccc2c(c1)OCCO2)c1cc(-c2ccccc2)nc2ccccc12	/	6	/	/	/	4	/
CCOc1cc(S(=O)(=O)NCc2ccc3c(c2)OCO3)c(C)cc1C	-2	0	93	1	-4	2	1.3
CCC(CC)C(=O)OCC(=O)Nc1ccc(S(=O)(=O)N2CCOCC2)cc1OC	/	-1	/	/	/	-46	/
CCOC(=O)Cc1csc(NC(=O)c2ccc(C)o2)n1	-3[fluorescence artefact?]	-2	97[fluorescence artefact?]	3	-15	-24	1.1
COc1ccc(NC(=O)c2cccc(S(=O)(=O)N3CCOCC3)c2)cn1	-5	-2	117	6	23	-11	1.1
Cc1cc(NC(=O)Nc2cccc(C(F)(F)F)c2)no1	-22	2	124	-5	8	4	1
Cc1cc(NS(=O)(=O)c2ccc(NC(=O)CCN3C(=O)c4ccccc4C3=O)cc2)no1	-1	/	115	10	7	/	1.2
O=C(CSc1ccc2c(c1)OCCO2)Nc1ccc(Cl)cn1	14	-3	103	6	-6	-12	1.1
COc1ccc(-c2cc(OC)c3c(C)oc(C)c3c(=O)c2)cc1OC	3[fluorescence artefact?]	0	95	7	11	31	1
O=C(Nc1nc2cc3c(cc2s1)OCCO3)c1cccc(S(=O)(=O)N2CCOCC2)c1	-8[fluorescence artefact?]	-2	122[fluorescence artefact?]	-5	1	8	1.1
CCN(CCCNC(=O)C1CCN(S(=O)(=O)c2c(C)[nH]c(=O)[nH]c2=O)CC1)c1cccc(C)c1	0	-1	137	11	7	-48	/
CC(C)(C)c1cc(NC(=O)C2CCCO2)no1 (centres undefined)	-7	5	101	5	5	-15	1.5
CCOc1cc(C2C(C(=O)OC(C)C)=C(C)N=C3SCCC(=O)N32)ccc1OC(C)=O (centres undefined)	-1	5	114	7	17	-19	1.1
COc1ccc(-c2nnc3ccc(SCC(N)=O)nn23)cc1OC	0	-2	98	3	0	-19	1
COc1ccc(C(=O)Nc2ccc3c(c2)OCCO3)cc1	-7	/	99	5	-1	/	/
COc1cccc(-c2nc(-c3ccc(NC(=O)c4cccs4)cc3)no2)c1	/	5	/	/	/	-3	/
NS(=O)(=O)c1ccc(NC(=O)NC2CCCCC2)cc1	/	-2	/	/	/	0	/
CCOC(=O)Cn1c2c(c(=N)c3ccccc31)CCC2	/	-2	/	/	/	-4	1.2
O=C(Nc1ccccc1)c1ccc(NCc2cccnc2)c(S(=O)(=O)N2CCOCC2)c1	-1	49	115	3	6	-12	1.2
CCOc1ccccc1-c1cc(C(=O)N/N=C/c2ccc3c(c2)OCO3)c2ccccc2n1	/	1	/	/	/	6	/
Cc1ccccc1NC(=O)C1CCCN(S(=O)(=O)c2cnc[nH]2)C1 (centres undefined)	16[fluorescence artefact?]	-1	99	0	-13	4	1.1
CCOC(=O)Cn1c(C)nc2ccccc21	2[fluorescence artefact?]	-4	118[fluorescence artefact?]	7	-6	-15	1.2
CC1CCN(C(=O)CCCNC(=O)Cn2cnc3sc4c(c3c2=O)CCCC4)CC1	-6	-3	102	-6	5	15	1.1
CC(C)(C)c1ccc(C2(C)NC(=O)N(CC(=O)c3ccc[nH]3)C2=O)cc1 (centres undefined)	23	/	62[fluorescence artefact?]	7	2	/	1.1

The list goes on.
SMILES	ERb SRC1 inh	Mac1 fbg enh	ERa coact pot	Candida biofilm	Smad3 FoxH1 inh	CD11b adhes inh	MT1-MMP txn act
Cc1ccc(CNC(=O)c2ccc3c(=O)n(CCCN4CCCC4=O)c(=S)[nH]c3c2)cc1	29	-4	141	4	-6	-4	1.2
C=CCn1c(CCNC(=O)c2cccs2)nnc1SCC(=O)Nc1cccc(C(C)=O)c1	-12	-4	117	5	-5	2	1
CCn1c(COc2ccc(Cl)cc2)nnc1SCC(=O)Nc1ccc2c(c1)OCCO2	8	-2	96	7	6	2	1.1
O=C(NCc1cccs1)C1CCN(C(=O)NCc2ccccc2)CC1	-8	/	98[fluorescence artefact?]	-2	-1	/	1.2
Cc1cc(-c2ccccc2)nc(SCc2ccc(C(=O)O)o2)n1	-4	2	108	9	-4	-4	1.1
CN(C)CCNC(=O)NC1CCCCC1	2	3	128	6	10	-4	1.2

Compound activity: PubChem BioAssay, several laboratories
